Source: PubChem BioAssay (Southern Research Specialized Biocontainment Screening Center)
Mtb bLac sens: beta-lactam sensitization of Mtb H37Rv, H37Rv | inhibition, % at 25 µM | M. tuberculosis H37Rv growth with meropenem, percent inhibition; hits of this screen are not shown here | actives 0.27% (n = 330,000);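 active = about 74% or more and at least 40 points above the plate without the antibiotic, then above 30% in a dose series; inconclusive = first-round hits that could not be retested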;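 note: growth measured after seven days incubation then overnight dye step; 0% = bacteria only wells and 100% = bacteria with antibiotic; twin plates without the antibiotic show which effects depend on it; some results filed as inactive read as strong as hits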
An asterisk follows results filed as active; ? = inconclusive. These rows are one share of the data, so the mix of outcomes need not match the whole.

SMILES	Mtb bLac sens
CCOC(=O)c1c(NC(=O)COC(=O)c2cccnc2OCC)sc(C(=O)N(CC)CC)c1C	-3
CN(C(=O)COC(=O)C1=COCCO1)C1(C#N)CCCCC1	42
Cc1cc(C)c(OCC(=O)Nc2ccc(N3CCOCC3)cc2)c(Br)c1	?
COC(=O)c1c(NC(=O)CCNCc2ccco2)sc2c1CCC2	-15
CC(C)(C)[C@H]1COC(=O)CC/C=C\C[C@@H](CC(=O)N[C@H](CO)Cc2ccccc2)C(=O)N1	1
CN1C/C(=C/c2ccncc2)C(=O)/C(=C/c2ccncc2)C1	4
O=c1[nH][nH]c(=O)c2cc([N+](=O)[O-])ccc12	2
Cc1ccc(C)c(-c2csc(NC(=O)c3c(C)noc3C)n2)c1	1
C[C@H]1CN([C@@H](C)CO)C(=O)Cc2cc(NS(=O)(=O)c3cn(C)cn3)ccc2O[C@@H]1CN(C)C(=O)Nc1ccc(F)cc1	-5
COc1ccc(C(CNC(=O)CNC(=O)c2ccc(F)cc2)N2CCCC2)cc1 (stereo not drawn)	0
COc1ccc(Cl)cc1C(=O)NNC(=O)COC(=O)c1ccc(Br)o1	0
O=C(Nc1cc(S(=O)(=O)N2CCOCC2)ccc1N1CCOCC1)c1ccccc1F	-9
Cc1cc(Cl)ccc1OCC(=O)NNC(=O)C1CCN(c2ncnc3sc(C)c(C)c23)CC1	66
COc1cccc(NC(=O)CN(C)C(=O)CCSc2ccc(C)cc2)c1	-1
C/C(=N\Nc1ccc(S(=O)(=O)N2CCCCC2)cn1)c1ccc(O)cc1	-1
O=S(=O)(/N=C(/Nc1nccs1)c1ccc(F)cc1)c1ccccc1	-3
O=C(CSc1n[nH]c(-c2cccs2)n1)N1CCOCC1	-1
O=C1OC[C@@H]2CCCN2C(=O)[C@H](CC(=O)N(CCO)Cc2ccccc2)C/C=C\CC[C@@H]1Cc1ccc(F)cc1	-6
COc1cc(C(C)=O)ccc1OCC(=O)NCCCn1nc(C)cc1C	-4
Cc1cc(C(=O)OCC(=O)NC2CCCCC2C)c2ccccc2n1 (stereo not drawn)	-1
O=C(COC(=O)/C=C/c1ccc([N+](=O)[O-])cc1)NCc1cccs1	1
CCNC(=O)N(C)C[C@H]1N[C@@](CC)(C(=O)OC)[C@H]2C(=O)N(C)C(=O)[C@@H]12	0
Cc1ccc(S(=O)(=O)N2CCCCC2)cc1C(=O)NCc1ccccn1	-8
CCCN(CC(=O)Nc1ccccc1C)C(=O)c1ccc2c(c1)OCO2	0
COCCN(C(=O)C1CC(=O)N(Cc2ccccc2)C1)c1nc(-c2ccc([N+](=O)[O-])cc2)cs1 (stereo not drawn)	99

Continued (2 carried over from the part before).
SMILES	Mtb bLac sens
CCCN(CC(=O)Nc1ccccc1C)C(=O)c1ccc2c(c1)OCO2	0
COCCN(C(=O)C1CC(=O)N(Cc2ccccc2)C1)c1nc(-c2ccc([N+](=O)[O-])cc2)cs1 (stereo not drawn)	99
COc1ccccc1OCC(=O)Nc1cc(Cl)ccc1N1CCCCC1	1
COc1ccc([C@H]2CC(=O)C=C(c3ccc4ccn(C)c4c3)C2)cc1	69
CCC/C(=C1/c2ccccc2C(=O)N1c1ccccc1)c1ccc2[nH]ccc2c1	10
CCCOC(=O)c1c(-c2ccccc2)nc(CC)c(C(=O)SCC)c1CCC	-4
CCN(CC(=O)Nc1ccc(OC)cc1)C(=O)c1ccc(N2CCCC2=O)cc1	0
COc1ccc(S(=O)(=O)Nc2cccc3c2O[C@@H](CN(C)CC2CC2)[C@@H](C)CN([C@@H](C)CO)C3=O)cc1	1
Cc1ccc(S(=O)(=O)NCC(=O)OCC(=O)Nc2ccc3c(c2)OCCO3)cc1	2
CC(C)(C)OC(=O)NCCCCCNC(=O)c1[nH]cnc1C(=O)Nc1nccs1	2
Cc1cccc(NC(=O)COC(=O)CCc2ccccc2)c1C	-5
C[C@H](CO)N1C[C@H](C)[C@@H](CN(C)S(=O)(=O)c2ccc(Cl)cc2)Oc2ccc(NS(=O)(=O)c3ccccc3)cc2CC1=O	-4
CC(C)N(Cc1nnc(-c2ccccc2Br)o1)C(=O)c1cc(Cl)nc2ccccc12	-3
COc1ccccc1NS(=O)(=O)c1cc(NC(=O)COc2ccccc2F)ccc1N1CCOCC1	2
CN(C(=O)CSc1nnnn1-c1ccc(O)cc1)C1CCCCC1	-3
C[C@H]1CN([C@@H](C)CO)C(=O)Cc2cc(NC(=O)CCC(F)(F)F)ccc2O[C@H]1CN(C)S(C)(=O)=O	6
O=C(Cn1cnc2cc([N+](=O)[O-])ccc2c1=O)N1CCN(S(=O)(=O)c2ccccc2)CC1	-4
COCCNC(=O)N1[C@H]2CC[C@@H]1C(C(=O)OC)=C(c1ccc(-c3ccccc3)c(F)c1)C2	6
N#Cc1ccc(CN2CCN(c3ccc(S(=O)(=O)N4CCCC4)cn3)CC2)cc1	-2
COC(=O)[C@]1(Cc2ccccc2)N[C@H](CN(C)S(=O)(=O)c2ccc(-c3ccccc3)cc2)[C@@H]2C(=O)N(Cc3ccccc3)C(=O)[C@@H]21	2
Cc1ccc(C(=O)NNC(=O)CCOc2cccc(C)c2)cc1	-6
COC(=O)c1c(-c2ccc(N(C)C)cc2)sc2ccc(OC)cc12	8
CCOc1ccc(OCCCC(=O)N2CCN(S(=O)(=O)c3ccccc3C#N)CC2)cc1	-6
O=C(NC(=S)NCc1ccc(Cl)cc1)c1ccco1	6
Cc1cc(N2CCNCC2)nc2ccccc12	-5
O=[N+]([O-])c1ccccc1CN1CCN(Cc2ccc3ccccc3c2)CC1	0
COc1ccc(N2CCN(C(=O)c3cccc(S(=O)(=O)N4CCCc5ccccc54)c3)CC2)cc1	-9
The results go on:
SMILES	Mtb bLac sens
CN(CC(=O)Nc1ccccc1Cl)C(=O)COC(=O)c1ccc(C(F)(F)F)cc1	-6
CC(C)CC1NC(=O)c2ccccc2-n2c1nc1ccc(F)cc1c2=O (stereo not drawn)	-5
CN(CC(=O)Nc1c(Cl)cccc1Cl)C(=O)Cn1[nH]c(=O)c2ccccc2c1=O	-2
Cc1c(NC(=O)c2cccc(NC(=O)COc3cccc(Br)c3)c2)c(=O)n(-c2ccccc2)n1C	1
OCCN1CCN(CC/C=C2/c3ccccc3Sc3ccc(Cl)cc32)CC1	60
O=C(c1cc(-c2ccc(Br)cc2)on1)N1CCCC1	0
C/C(=N\NC(=O)C1(C)CC1(Br)Br)c1cccc(NC(=O)c2ccc(C)o2)c1 (stereo not drawn)	?
CCCCN(C(=O)c1cc2c(s1)CCCC2)c1c(N)n(CCC)c(=O)[nH]c1=O	-4
O=C(CNC(=O)C1COc2ccccc2O1)Nc1ccc(F)c(F)c1 (stereo not drawn)	-11
COc1ccc(S(=O)(=O)N2CCCCC2)cc1NC(=O)CCNC(=O)c1ccc(Cl)cc1	-3
O=C(CN1CCCCC1)NC(=O)NC1CCCCC1	-4
COc1ccc(CNC(=O)CCC(=O)c2ccc(F)cc2)cc1OC	-5
Cc1cc(C)cc(NC(=O)COC(=O)CCn2c(C)csc2=O)c1	-2
C=CCC[C@@H](Cc1ccc(F)cc1)C(=O)O[C@H](CNC(=O)[C@H](CC=C)CC(=O)N(CCO)Cc1ccccc1)c1ccccc1	-2
N#Cc1ccc(CN2CCN(C(=O)Cn3nc(C(N)=O)c4ccccc4c3=O)CC2)cc1	-7
C#CCOCCOCCOCCNc1nc(N2CCN(C(=O)CCCCCCCCCCNC(=O)[C@H](CCCCN)n3cc(C)nn3)CC2)nc(N2CCN(C(=O)CCCCCCCCCCNC(=O)[C@H](CCCCN)n3cc(CCCC(=O)O)nn3)CC2)n1	51
CC(CC(=O)N1CCN(S(=O)(=O)c2ccc([N+](=O)[O-])cc2)CC1)c1ccccc1 (stereo not drawn)	0
Cc1ccccc1OCC(=O)NCC(=O)OCC(=O)c1ccc([N+](=O)[O-])cc1	?
CSCCC(NS(=O)(=O)c1ccc(C)cc1)C(=O)N1CCCC1 (stereo not drawn)	-9
COc1ccc([C@H]2CC(=O)C=C(/C=C/Cc3ccccc3)C2)cc1	22
Cc1noc(C)c1COc1ccc(C(=O)NCCc2ccc(F)cc2)cc1	6
COc1ccc(NC(=O)Cc2cccs2)cc1S(=O)(=O)N1CCCCC1	-2
CCOc1ccccc1OCCCC(=O)NNC(=O)c1cc(C)oc1C	-5
COc1ccccc1-c1sc2ccccc2c1C#Cc1ccc(N(C)C)cc1	0
Cc1ccc(NC(=O)COC(=O)Cc2ccc(Br)cc2)cc1S(=O)(=O)N1CCOCC1	3

Given with bars between the fields: part of the list above
SMILES | Mtb bLac sens
Cc1cc(C)c(OCC(=O)Nc2ccc(N3CCOCC3)cc2)c(Br)c1 | ?
COC(=O)c1c(NC(=O)CCNCc2ccco2)sc2c1CCC2 | -15

Further structures.
SMILES	Mtb bLac sens
CCCn1c(=O)c2c(ncn2C)n(CCC)c1=O	-7
Cc1ccc(NC(=O)CSc2nnc(-c3ccoc3C)n2CCCN(C)C)cc1Cl	-25
CC(C)(C)c1ccc(S(=O)(=O)N2CCN(CC(=O)N3CC(=O)Nc4ccccc43)CC2)cc1	-4
Cc1cccc(OC(C)C(=O)OCC(=O)N2CCN(c3ccccc3)CC2)c1 (stereo not drawn)	67
CCc1cc(C(=O)N2CCN(S(=O)(=O)c3ccc(Cl)cc3)CC2)sc1C	0
Cc1ccc(S(=O)(=O)N(C)C)cc1NC(=O)C1CCCCN1S(=O)(=O)c1ccccc1 (stereo not drawn)	-11
C[C@]12c3[nH]c4ccccc4c3CCN1C(=O)C(CC(=O)NCC13CC4CC(CC(C4)C1)C3)C[C@@H]2C(=O)N1CCOCC1 (stereo partly drawn)	11
O=C(CN1CCN(CC(=O)Nc2cccc(F)c2)CC1)NCC1(N2CCOCC2)CCCCC1	-8
COc1cc(Cl)c(C)cc1NC(=O)CN1CCN(C(=O)C2CC2)CC1	2
c1ccc(CCCCN2C(Nc3ccccc3)=NC[C@@H]2Cc2ccccc2)cc1	82
Cc1ccc(S(=O)(=O)N2[C@@H](c3ccccc3)C(C(=O)O)=CC[C@H]2c2ccc(Cl)cc2)cc1	-5
COc1cccc2sc3cc(NCC[C@@H]4CCCN4C)ccc3c(=O)c12	1
COc1cc(C(=O)OCC(=O)c2ccc(S(=O)(=O)N3CCCCC3)cc2)cc(OC)c1OC	-2
O=C(COC(=O)c1cccc(S(=O)(=O)N2CCOCC2)c1)Nc1ccc(Cl)cn1	0
Nc1nc2cc(S(=O)(=O)N3CCOCC3)ccc2o1	21
N#CCC(=O)Nc1ccc(C(=O)OCC(=O)Nc2ccc3ccccc3c2)cc1	-6
Cc1noc(C)c1C(=O)Nc1ccccc1N1CCCC1	7
CC(OC(=O)c1ccc(CN2CCCC2=O)cc1)C(=O)Nc1ccc(Cl)cc1 (stereo not drawn)	2
Cc1ccc(NC(=O)CN2C(=O)NC3(CCCCC3)C2=O)cc1S(=O)(=O)N1CCOCC1	-6
Cc1ccc(C)c(-n2sc3ccc(F)cc3c2=O)c1	48
COc1ccc(CCNC(=O)CSc2nc3scc(-c4ccccc4)c3c(=O)[nH]2)cc1	0
Cc1nnc(SCC(=O)Nc2sccc2C(N)=O)s1	0
O=C(Nc1ccc(C(=O)N2CCCc3ccccc32)cc1)c1cccs1	7
CC(c1ccccc1)N1CC(C(=O)Nc2ccc(F)cc2)CC1=O (stereo not drawn)	-7
COCCN(CC(=O)Nc1cc(Cl)ccc1-n1cncn1)Cc1nc2ccccc2c(=O)[nH]1	-1
(cont.)
SMILES	Mtb bLac sens
CN(Cc1ccccc1)C(=O)c1[nH]cnc1C(=O)Nc1nccs1	1
O=c1onc(-c2ccccc2)n1-c1cc(Cl)cc(Cl)c1	2
COCCN(C(=O)CSc1nnc(-c2ccc(C)cc2)n1N)c1c(N)n(Cc2ccccc2)c(=O)[nH]c1=O	4
CCOC(=O)[C@@H]1[C@H]2COc3cc(OC)ccc3[C@@H]2N2C(=O)N(c3ccc(OC)cc3)C(=O)[C@@]12C	0
COc1cccc(NC(=O)C(NCCc2ccc(S(N)(=O)=O)cc2)c2ccccc2)c1 (stereo not drawn)	-3
O=C(CCc1nc2ccccc2c(=O)[nH]1)N1CCN(c2ccccc2Cl)CC1	39
C=CCC[C@@H](Cc1ccc(F)cc1)C(=O)OC[C@H](Cc1c[nH]c2ccccc12)NC(=O)[C@@H](CC=C)CC(=O)N[C@H](CO)Cc1ccccc1	0
CCCCCCC(=O)O	-10
O=C(NCCCN1CCCC1=O)c1cc2ccccc2o1	2
COc1ccc(C(=O)N2CCN(S(=O)(=O)c3ccc(Br)cc3)CC2)cc1	0
CCN(C(=O)c1ccc2c(c1)OCO2)C12CC3CC(CC(C3)C1)C2	3
COc1cc(C(=O)NCC(c2cccs2)N2CCOCC2)cc(Br)c1OCc1ccccc1 (stereo not drawn)	-1
Cc1ccc(S(=O)(=O)NC[C@H]2O[C@@H](n3cnc4c(N)ncnc43)[C@H](O)[C@@H]2O)s1	8
COC(=O)C1=C(c2ccc(F)cc2F)C[C@@H]2CC[C@H]1N2C(=O)N1CCCCC1	1
O=C(c1n[nH]c2ccccc12)N1CCN(S(=O)(=O)c2ccc(Cl)cc2)CC1	8
CN(Cc1ccc(Cl)cc1)C(=O)COC(=O)CSc1ccc([N+](=O)[O-])cc1	1
CCC(=O)N(c1nnc(SCC(=O)Nc2ccccc2Cl)s1)C1CC1	1

Seven entries from above, in CSV form.
Structure,Mtb bLac sens
COc1ccc(C(=O)N2CCN(S(=O)(=O)c3ccc(Br)cc3)CC2)cc1,0
CCN(C(=O)c1ccc2c(c1)OCO2)C12CC3CC(CC(C3)C1)C2,3
COc1cc(C(=O)NCC(c2cccs2)N2CCOCC2)cc(Br)c1OCc1ccccc1 (stereo not drawn),-1
Cc1ccc(S(=O)(=O)NC[C@H]2O[C@@H](n3cnc4c(N)ncnc43)[C@H](O)[C@@H]2O)s1,8
COC(=O)C1=C(c2ccc(F)cc2F)C[C@@H]2CC[C@H]1N2C(=O)N1CCCCC1,1
O=C(c1n[nH]c2ccccc12)N1CCN(S(=O)(=O)c2ccc(Cl)cc2)CC1,8
CN(Cc1ccc(Cl)cc1)C(=O)COC(=O)CSc1ccc([N+](=O)[O-])cc1,1
